Screening results (PubChem BioAssay)
PINK1 expr mod = changes PINK1 expression. PINK1 immunofluorescence, high-content cytometry, 24 h. Potency, µM (highest dose often 76.6 µM), for inactives: at the top dose activation (PINK1 increase), most hits filed as activators. 0.2% of 410,000 active; active = well fitted activation curve with a large enough effect; inconclusive = small, poorly fitted or top-dose-only effect; inactive = flat fitted curve, though single readings scatter; cell line not stated here;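 also: potency is read from the fitted curve at half-maximal effect; % of control where 0% means no effect; nearly all actives have a fitted effect of over 65% in size; a mitochondrial uncoupler was the plate control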
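Measures PINK1 amount and localization on or inside mitochondria by immunofluorescence. Stable cells get compounds at 5 concentrations for 24 hours before fixation and staining; CCCP controls included.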
D2 agonist = activates the human D2 dopamine receptor. P14416. DiscoveRx PathHunter D2 beta-arrestin, luminescence, 90 min; 100% = 57 uM dopamine signal. activation, % (test concentration not listed). 0.084% of 360,000 active; in the data active = activation above about 40%; inconclusive = about 15% to 40%; inactive = below about 15%; also: compound concentration not given in the record; the text of the record calls up to 30% inactive
Target sequence (P14416 whole entry, looked up): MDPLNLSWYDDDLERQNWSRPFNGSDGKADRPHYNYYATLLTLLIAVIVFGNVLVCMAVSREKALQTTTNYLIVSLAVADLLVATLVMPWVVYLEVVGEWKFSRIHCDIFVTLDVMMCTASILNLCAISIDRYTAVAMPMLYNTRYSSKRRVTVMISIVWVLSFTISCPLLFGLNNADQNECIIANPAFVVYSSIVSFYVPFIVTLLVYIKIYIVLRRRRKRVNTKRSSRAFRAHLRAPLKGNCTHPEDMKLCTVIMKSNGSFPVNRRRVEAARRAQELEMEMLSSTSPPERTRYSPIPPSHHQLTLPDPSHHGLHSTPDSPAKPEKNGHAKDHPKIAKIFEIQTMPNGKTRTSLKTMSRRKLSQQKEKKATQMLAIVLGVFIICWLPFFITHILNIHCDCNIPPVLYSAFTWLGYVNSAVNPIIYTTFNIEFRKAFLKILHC
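Agonist mode: compounds alone added to overnight-plated D2 PathHunter cells for 90 min at 37 C, with 57 uM final dopamine (EC100) defining full response. Beta-arrestin recruitment detected by chemiluminescent reagent, read after 1 h at ambient temperature.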
TRPML1 agonist = activates the human TRPML1 channel | Q9GZU1 | TRPML1-expressing cells, Ca2+ dye fluorescence, FDSS; host cell line not named in the record; reference of the full effect not given here | activation, % (test concentration not listed) | 0.12% of 410,000 active; in the data active = activation above about 50%; inconclusive = about 30% to 50%; inactive = below about 30%; also: 0% is about no effect; the text of the record puts the active cut at 80%
Target sequence (Q9GZU1 whole entry, looked up): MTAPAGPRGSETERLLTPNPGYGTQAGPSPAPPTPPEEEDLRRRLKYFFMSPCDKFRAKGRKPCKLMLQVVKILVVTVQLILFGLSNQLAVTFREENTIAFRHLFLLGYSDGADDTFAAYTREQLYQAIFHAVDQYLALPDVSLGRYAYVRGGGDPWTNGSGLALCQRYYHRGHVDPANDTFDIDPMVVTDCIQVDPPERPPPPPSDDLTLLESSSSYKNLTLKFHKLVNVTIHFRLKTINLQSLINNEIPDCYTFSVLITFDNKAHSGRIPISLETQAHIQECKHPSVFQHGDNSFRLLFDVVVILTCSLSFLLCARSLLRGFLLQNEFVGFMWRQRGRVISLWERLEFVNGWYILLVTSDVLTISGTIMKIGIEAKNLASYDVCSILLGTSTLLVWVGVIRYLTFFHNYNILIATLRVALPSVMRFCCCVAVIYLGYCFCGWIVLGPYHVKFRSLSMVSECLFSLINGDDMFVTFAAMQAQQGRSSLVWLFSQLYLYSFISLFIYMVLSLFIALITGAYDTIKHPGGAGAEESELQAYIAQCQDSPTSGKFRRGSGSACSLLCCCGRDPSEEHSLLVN
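TRPML1-DL cells, Tet-induced overnight (~16 h, 37 degrees C), loaded 45-90 min at room temperature with Ca8 no-wash calcium dye plus quencher. FDSS fluorescence: 10 s baseline, compound pin-transfer, 110 s agonist read, then EC80 54-4 (4uM final) and 110 s antagonist read.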
D2 PAM = potentiates the human D2 dopamine receptor allosterically; P14416; potentiation, % (no concentration beside the values); 0.23% of 360,000 active; DiscoveRx D2 beta-arrestin cells, luminescence, 90 min; 100% = 57 uM dopamine signal; active = potentiation of 50% or more; inconclusive = 30% to 50%; inactive = 30% or less;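 also: compound concentration not given in the record; tested on top of an EC20 dose of dopamine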
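PathHunter D2 cells, attached overnight at 37 deg C, received compound in DMSO plus dopamine at EC20 (50 nM final) for 90 min at 37 deg C. Beta-arrestin recruitment was read as luminescence after 1 h with detection reagent at ambient temperature.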
Six1-Eya2 inh = Six1/Eya2 interaction inhibition; activity change, % (test concentration not listed); 0.56% of 360,000 active; AID 651725; AlphaScreen GST-Six1/His-Eya2 binding, biochemical; stronger effect = lower value; control for the full effect not named in the record; Q15475+O00167; in the data active = activity change below about -65%; inconclusive = about -30% to -65%; inactive = above about -30%; also: % is scaled to controls: 0 for no effect and ±100 for the full control effect; compound concentration not given in the record
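GST-Six1 + His-Eya2 (5X stock: 250/500 nM); Tris pH 8.0, 300 mM NaCl, 0.05% BSA, 0.02% Tween 20; GSH donor/Ni acceptor beads; 1 h 37 °C dark; AlphaScreen readout.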
TRPML1 inh = inhibitors of human TRPML1 channel. Q9GZU1. TRPML1-inducible cells, Ca2+ dye fluorescence, FDSS; stronger effect = lower value; inhibition of EC80 agonist-evoked calcium signal. activity change, negative = inhibition, % (no concentration beside the values). 0.02% of 390,000 active; in the data active means activity change below about -50%; inconclusive means about -30% to -50%; inactive means above about -30%;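 also: stimulus is agonist 54-4 at its EC80 concentration; % is scaled to controls: 0 for no effect and ±100 for the full control effect; compound concentration not given in the record; the text of the record puts the active cut at -80%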
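TRPML1-DL cells, Tet-induced overnight (~16 h, 37 °C) at 1,500 cells/well, were loaded with Ca8 no-wash dye plus quencher for 45-90 min at room temperature. Compounds were pinned during FDSS kinetic reading; agonist 54-4 at EC80 (4 uM final) then added.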
* marks the source's active call; other numbers are inactive results; & = joins results of further samples; [ ] = dose if it differs, or a comment.

Screening O=C(Nc1cccc(C(F)(F)F)c1)C(Sc1ncnc2ccccc12)c1ccccc1 (configuration not stated) returned PINK1 expr mod 12.1%, D2 agonist -1.7, TRPML1 agonist -0.3, D2 PAM -14.4, Six1-Eya2 inh -4.5 and TRPML1 inh -16.5.
Cc1c(C(=O)NCCc2ccccc2)cccc1-n1cnc2cccnc21 was read as PINK1 expr mod -1.3%, TRPML1 agonist 1.2 and TRPML1 inh -8.1.
COc1ccc(C(CNC(=O)c2ccc(-c3ccccc3Cl)o2)N2CCCC2)cc1 (configuration not stated) was read as PINK1 expr mod -1.6%, D2 agonist -1.2, TRPML1 agonist 1.5, D2 PAM -21.6, Six1-Eya2 inh -22.0 and TRPML1 inh 13.2.
For COc1ccc(N2CC(C(=O)NCCC3=CCCCC3)CC2=O)c(OC)c1 (configuration not stated) the results were PINK1 expr mod 1.1%, D2 agonist 3.5, TRPML1 agonist 1.4, D2 PAM 8.3, Six1-Eya2 inh -0.7 and TRPML1 inh -8.1.
COc1ccccc1NC(=O)CSc1oc(-c2cccs2)nc1S(=O)(=O)c1ccc(Br)cc1 was read as PINK1 expr mod -2.4%, TRPML1 agonist 0.5 and TRPML1 inh -10.0.
Screening COc1ccc(/C=N/NC(=O)c2c(Br)cnn2C)c2ccccc12 returned PINK1 expr mod 3.7%, D2 agonist -0.2, TRPML1 agonist 2.0, D2 PAM -6.5, Six1-Eya2 inh -4.4 and TRPML1 inh 5.5.
`CC(NC(=O)CCNS(=O)(=O)c1ccc2c(c1)c(=O)n(C)c(=O)n2C)c1ccccc1` (configuration not stated) gave PINK1 expr mod 3.7%[38.3 µM], D2 agonist -3.3, TRPML1 agonist 0.6, D2 PAM -3.7, Six1-Eya2 inh -27.4 and TRPML1 inh -12.4.
For O=C(N/N=C/C(Cl)=C/c1ccccc1)c1ccncc1 the results were PINK1 expr mod 0.4%, D2 agonist 3.5, TRPML1 agonist -0.6, D2 PAM -2.6, Six1-Eya2 inh inconclusive and TRPML1 inh 0.6.
For CCOC(=O)CSc1nc2cc(C(=O)NCc3ccco3)ccc2c(=O)n1-c1ccc(F)cc1 the results were PINK1 expr mod inconclusive, D2 agonist -3.2, TRPML1 agonist -0.3, D2 PAM -4.8, Six1-Eya2 inh 1.2 and TRPML1 inh 4.4.
For CCn1c(CC(C)C)n[nH]c1=S the results were PINK1 expr mod 7.3%, D2 agonist -0.6, TRPML1 agonist 0.2, D2 PAM -2.8, Six1-Eya2 inh 2.7 and TRPML1 inh 14.6.
For Cc1cccc(C(=O)NCCCn2ccnc2)c1C the results were PINK1 expr mod 1.7%, D2 agonist 0.8, TRPML1 agonist 0.5, D2 PAM 1.0, Six1-Eya2 inh 7.1 and TRPML1 inh -0.8.
Screening COc1ccc(CCNC(=O)CN(c2ccc(OC)c(OC)c2)S(C)(=O)=O)cc1 returned PINK1 expr mod 0.6%, D2 agonist -2.2, TRPML1 agonist 0.2, D2 PAM 2.3, Six1-Eya2 inh 5.5 and TRPML1 inh -10.7.
Screening Cc1ccc(C2C(C#N)=C(N)N(N(C)C)C3=C2C(=O)CCC3)cc1 (configuration not stated) returned PINK1 expr mod 0.9%, D2 agonist -4.1, TRPML1 agonist -0.5, D2 PAM -11.3, Six1-Eya2 inh -0.4 and TRPML1 inh 10.3.
For COC(=O)c1nn(-c2cccc(C)c2)c2nnc(Cc3ccccc3)c(=O)n12 the results were PINK1 expr mod 1.2%, D2 agonist 4.6, TRPML1 agonist 2.0, D2 PAM 11.4, Six1-Eya2 inh -4.4 and TRPML1 inh 14.0.
`CCOC(=O)C1=C(C)N=C(SC)N(C)C1c1ccccc1` (configuration not stated) gave PINK1 expr mod -5.0%[38.3 µM], D2 agonist -1.7, TRPML1 agonist -0.5, D2 PAM -11.6, Six1-Eya2 inh 1.5 and TRPML1 inh 1.0.
`Cc1ccccc1OCC(=O)N/N=C/c1cc2ccccc2nc1Cl` gave PINK1 expr mod -0.7%, D2 agonist -1.9, TRPML1 agonist 0.9, D2 PAM -1.0, Six1-Eya2 inh -5.7 and TRPML1 inh 1.3.
For O=C(c1cc(-c2ccco2)nc2ccccc12)N1CCCC(C(F)(F)F)C1 (configuration not stated) the results were PINK1 expr mod 0.2%, D2 agonist 10.3, TRPML1 agonist -0.2, D2 PAM -2.0, Six1-Eya2 inh -8.8 and TRPML1 inh -5.8.
Screening CCOC(=O)c1cc(-c2ccccc2)sc1NC(=O)COC(=O)c1ccc(Cl)c(S(N)(=O)=O)c1 returned PINK1 expr mod 4.2%, D2 agonist -2.8, TRPML1 agonist -0.1, D2 PAM -2.7, Six1-Eya2 inh 5.0 and TRPML1 inh -2.2.
Screening Cc1ccc(Cn2c(C)c(C(=O)NCc3ccc(Cl)c(Cl)c3)sc2=O)cc1 returned PINK1 expr mod 1.5%, D2 agonist -1.4, TRPML1 agonist 2.7, D2 PAM -3.5 and Six1-Eya2 inh -2.5.
`O=C(COC(=O)c1ccccc1O)Nc1ccc(OC(F)F)cc1` gave PINK1 expr mod 0.9%, D2 agonist -2.4, TRPML1 agonist 1.6, D2 PAM -17.2, Six1-Eya2 inh -2.1 and TRPML1 inh -5.0.
CC(=O)CCc1c(C)c2cc(C)ccc2[nH]c1=O was read as PINK1 expr mod 1.1%, D2 agonist 0.6, TRPML1 agonist -0.2, D2 PAM 3.2, Six1-Eya2 inh -0.1 and TRPML1 inh 6.8.
Screening Cn1nnc(NC(=O)c2ccccc2F)n1 returned PINK1 expr mod -1.4%, D2 agonist -1.8, TRPML1 agonist -0.4, D2 PAM -4.9, Six1-Eya2 inh -14.0 and TRPML1 inh -12.5.
NS(=O)(=O)c1ccc(CCNC(=O)c2ccc3nc4ccc(Cl)cc4c(=O)n3c2)cc1 was read as PINK1 expr mod 5.6%, D2 agonist 1.0, TRPML1 agonist 2.8, D2 PAM -1.7, Six1-Eya2 inh -4.7 and TRPML1 inh -1.1.
Cc1noc(C)c1C(=O)Nc1cccnc1 was read as PINK1 expr mod 6.4%[38.3 µM], D2 agonist -4.4, TRPML1 agonist -0.1, D2 PAM -9.3, Six1-Eya2 inh 24.0 and TRPML1 inh -2.4.
Screening Cc1ccc(Nc2ccc(C(=O)NC3CCCCC3)cn2)cc1 returned PINK1 expr mod 7.4%, D2 agonist -0.6, TRPML1 agonist 1.2, D2 PAM -5.0, Six1-Eya2 inh -4.7 and TRPML1 inh -3.3.
Screening O=C(CCCCCNC(=O)N1CCn2c1nc1ccccc12)NCCc1ccccc1 returned PINK1 expr mod 0.9%, D2 agonist 3.5, TRPML1 agonist 0.7, D2 PAM -1.6, Six1-Eya2 inh -0.2 and TRPML1 inh -11.6.
N#CCc1ccc(Oc2ncc(C(F)(F)F)cc2Cl)cc1 was read as PINK1 expr mod 2.6%, D2 agonist -4.0, TRPML1 agonist 0.0, D2 PAM -3.3, Six1-Eya2 inh -12.2 and TRPML1 inh -11.1.
Screening Cc1ccc(-c2n[nH]c(=S)n2/N=C/c2ccc(C(=O)O)cc2)cc1 returned PINK1 expr mod 1.0%, D2 agonist 4.7, TRPML1 agonist -0.1, D2 PAM -13.3, Six1-Eya2 inh 0.6 and TRPML1 inh -27.3.
Screening CCOC(=O)c1c(NC(=O)CSc2cn(CCNC(=O)c3ccc(OC)c(OC)c3)c3ccccc23)sc2c1CCCC2 returned PINK1 expr mod 0.5%, TRPML1 agonist -0.3 and TRPML1 inh 4.8.
Screening CCOc1ccc(N2C(=O)CN(c3cccc4ccccc34)C2=S)cc1 returned PINK1 expr mod 8.2%, D2 agonist -3.3, TRPML1 agonist -0.8, D2 PAM -4.3, Six1-Eya2 inh 4.9 and TRPML1 inh -15.9.
COc1cnn(-c2cc(Oc3ccc(C)cc3)ncn2)c(=O)c1Cl was read as PINK1 expr mod 1.2%, D2 agonist -2.9, TRPML1 agonist -0.8, D2 PAM -4.5, Six1-Eya2 inh -0.5 and TRPML1 inh -3.2.
For CN(CC(=O)O)S(=O)(=O)c1cccs1 the results were PINK1 expr mod -1.0%, D2 agonist 0.3, TRPML1 agonist 0.9, D2 PAM -17.7, Six1-Eya2 inh 6.7 and TRPML1 inh -6.1.
`CC(=O)c1cccc(Nc2c3c(nc4nc(-c5cccs5)nn24)CCCC3)c1` gave PINK1 expr mod 1.9%, TRPML1 agonist 1.2 and TRPML1 inh -5.0.
`O=C(CC1CCCCC1)N1CCN(c2ccccn2)CC1` gave PINK1 expr mod -7.6%[38.3 µM], D2 agonist 1.3, TRPML1 agonist 0.0, D2 PAM -6.4, Six1-Eya2 inh 2.2 and TRPML1 inh -5.4.
O=C(NCCCCc1ccccc1)Nc1ccc(F)cc1 was read as PINK1 expr mod -0.3%, D2 agonist -3.6, TRPML1 agonist 0.0, D2 PAM -19.5, Six1-Eya2 inh 0.9 and TRPML1 inh 18.0.
O=C1C[C@@H]2c3c(cccc3CN1Cc1ccc(Cl)cc1)C[C@@H](O)[C@H]2O was read as PINK1 expr mod -0.6%, D2 agonist -3.7, TRPML1 agonist -0.4&0.9, D2 PAM -2.1, Six1-Eya2 inh 3.7 and TRPML1 inh -4.5.

In the list so far, these contain bromine.
COc1ccccc1NC(=O)CSc1oc(-c2cccs2)nc1S(=O)(=O)c1ccc(Br)cc1 was read as PINK1 expr mod -2.4%, TRPML1 agonist 0.5 and TRPML1 inh -10.0.
Screening COc1ccc(/C=N/NC(=O)c2c(Br)cnn2C)c2ccccc12 returned PINK1 expr mod 3.7%, D2 agonist -0.2, TRPML1 agonist 2.0, D2 PAM -6.5, Six1-Eya2 inh -4.4 and TRPML1 inh 5.5.

(continued)
`Cc1cccc(OCCC(=O)OCc2csc(CC(=O)Nc3ccccc3C)n2)c1` gave PINK1 expr mod 3.1%, D2 agonist 1.2, TRPML1 agonist 1.0, D2 PAM 15.6, Six1-Eya2 inh 5.0 and TRPML1 inh 5.6.
Cc1nc2ccccc2nc1OCC(=O)NCC(F)(F)F was read as PINK1 expr mod -0.5%, D2 agonist 2.4, TRPML1 agonist 0.5, D2 PAM 12.6, Six1-Eya2 inh 0.7 and TRPML1 inh 14.7.
`Cc1ccc(-c2nc(-c3ccncc3)no2)cc1Cl` gave PINK1 expr mod 3.6%, D2 agonist 1.2, TRPML1 agonist 1.3, D2 PAM -2.6, Six1-Eya2 inh 4.7 and TRPML1 inh 36.5.
For CCOC(=O)Cn1cc(C(=O)C2CC2)c2ccccc21 the results were PINK1 expr mod -0.1%, D2 agonist -1.5, TRPML1 agonist 0.6, D2 PAM -3.0, Six1-Eya2 inh 4.4 and TRPML1 inh 11.8.
COc1ccc(C(=O)C2CCN(C(=O)c3ccco3)CC2)cc1 was read as PINK1 expr mod -0.8%[38.3 µM], D2 agonist -2.9, TRPML1 agonist -0.5, D2 PAM -0.1, Six1-Eya2 inh -2.8 and TRPML1 inh 1.8.
